Assay outcomes from PubChem.
Prx2 Sm inh = Schistosoma mansoni Prx2 inhibition. S. mansoni Prx2 activity coupled to TGR/GSH (TGR is thioredoxin glutathione reductase), NADPH fluorescence loss, qHTS; some inactives read as strong as hits. Potency, µM. 65,000 compounds, 0.07% hits; active means full or partial inhibition curve with a strong effect at the top dose; inconclusive means weaker partial or single-point curve; inactive means no accepted curve; also: series up to 57 µM; many of its hits are not listed in these tables
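Prx2 activity was followed as the loss of NADPH fluorescence (ex 365/em 450 nm), read every 30 sec for 8 min after H2O2 start. The enzyme mix (50 nM Prx2, 25 nM TGR, GSH, NADPH; pH 7.4 phosphate buffer) was incubated with compound for 15 min at room temperature first.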
LT uptake inh = anthrax lethal toxin internalization inhibition; Cells, anthrax lethal toxin internalization, FRET ratio (460/530); AID 912; 70,000 compounds, 0.67% hits; Potency, µM (top dose mostly 40 µM), for inactives: at the top dose activity change, negative = inhibition, hits mostly inhibitors; active = well fitted falling ratio curve with the 530 nm signal flat; inconclusive = other ratio curves, or a change in one channel alone; inactive = flat curves in the ratio and both channels; the % refers to the ratio; also: % is scaled to controls: 0 for no effect and ±100 for the full control effect; nearly all actives have a fitted effect of over 50% in size; tested in ME-180 cells; beta-lactamase reporter
* hit, by the source's call; ? = inconclusive; . = no result given; & = joins results of further samples; [ ] = remark or other dose. Potency is read from the fitted curve at half-maximal effect. These rows are one share of the data, so the mix of outcomes need not match the whole.

Every second line gives: Prx2 Sm inh | LT uptake inh
> CCC(c1nnc(SCC(=O)N2CC3(C)CC2CC(C)(C)C3)o1)N(C)C (stereo not given)
→ >57 | 4%
> CC(=O)n1c2ccccc2c2c1c1ccccc1n2C
→ . | -6%
> COc1ccc(S(=O)(=O)Cc2ccc(C(=O)NCc3ccco3)o2)cc1
→ >57 | -9%
> Cc1cc(NC(=O)CNC(=O)C2CCCCC2)no1
→ >57 | -5%
> Cc1ccc(O)c(NC(=O)c2cccc(S(=O)(=O)N3CCCCC3)c2)c1
→ >57 | -8%
> COCCn1nnnc1C(c1ccccc1OC)N1CCN(c2ccccc2F)CC1 (stereo not given)
→ >57 | -16%
> O=C1COc2ccc(C(=O)CSc3nnc(Cc4cccs4)n3-c3ccccc3)cc2N1
→ >57 | -21%
> CCC1CCCCN1C1Sc2ccc(C(=O)OC)cc2NC1=O (stereo not given)
→ >57 | 14%
> COCCn1c(=O)c(CCc2ccccc2)nc2cnc(N3CCNCC3)nc21
→ >57 | ?
> CN(C)c1ccc(-c2cc(NCc3ccccc3)ncn2)cc1
→ >57 | ?
> CCOc1cc(C(=O)NCCOC)ccc1OC
→ >57 | 1%
> CCOC(=O)N1CCN(C(=O)C(C)n2nc(C)n3c(cc4sccc43)c2=O)CC1 (stereo not given)
→ >57 | 2%
> CCOC(=O)C(NC(C)=O)(Nc1ccc(F)cc1)C(F)(F)F (stereo not given)
→ >57 | -4%
> O=C(O)CC1Oc2ccc(Cl)cc2NC1=O (stereo not given)
→ >57 | -6%
> CC1Oc2ccccc2N(CC(=O)N(Cc2ccccc2)Cc2ccccn2)C1=O (stereo not given)
→ >57 | -4%
> c1ccc2c(c1)OCC(c1nnc3sc(-c4cnccn4)nn13)O2 (stereo not given)
→ >57 | -10%
> O=S(=O)(c1cccc2cnccc12)N1CCNCC1
→ >57 | -5%
> CCc1c(C)c(C#N)c2nc3ccccc3n2c1N(C)C
→ >57 | ?
> CCCCCSc1nncc(=O)[nH]1
→ >57 | 12%
> COc1cccc(C2=CC(c3cccc(OC)c3OC)n3nnnc3N2)c1 (stereo not given)
→ >57 | 2%
> O=C(O)c1ccccc1S(=O)(=O)NCC(O)COC1CCCCC1 (stereo not given)
→ ? | -8%
> CCC(C(=O)NCc1ccco1)N(C(=O)CNS(=O)(=O)c1ccc(C)cc1)c1ccccc1OC (stereo not given)
→ >57 | -3%
> COCCCn1c(SCC(=O)N2CCCCC2C)nnc1-c1ccco1 (stereo not given)
→ >57 | 7%
> Cc1cc(C(=O)N2CCC3(CC2)OCCO3)cs1
→ >57 | 9%
> Cc1cccc(C)c1OCc1nnc(SCC(=O)Nc2ccccc2F)o1
→ >57 | 14%
> CC(=O)N1CCc2cc(S(=O)(=O)NCCC(=O)Nc3cc(C)cc(C)c3)ccc21
→ >57 | -9%
> COC(=O)N(C)CCCC1(C)C(=O)N(C)c2ccc(O)cc21 (stereo not given)
→ >57 | 8%
> O=C(N1CCOCC1)C(F)(F)C(F)(F)C(F)(F)C(F)(F)C(=O)N1CCOCC1
→ . | -2%
> CCOC(=O)c1c(NC(=O)CSc2nc3c(c(=O)n(C)c(=O)n3C)n2CC)sc(C)c1C
→ >57 | -4%
> NC(=O)C1CCN(C(=O)N2c3ccccc3Sc3ccccc32)CC1
→ >57 | 30%
> O=C(NC1CCCC1)C(c1ccccc1)N(C(=O)c1ccno1)c1cccnc1 (stereo not given)
→ >57 | -14%
> CCN(CC)CCOC(=O)c1ccc(NC(=O)COc2cc(=O)n(CC)c3ccccc23)cc1
→ >57 | -26%
> Cc1cc2nc3c(nc2cc1C)C1(C(=O)O)CCC3(C)C1(C)C (stereo not given)
→ >57 | 0%
> Nc1nc(CN2CCOCC2)cs1
→ >57 | -2%
> CCNC(=O)CCC(=O)Nc1cc(Cl)ccc1C
→ . | 0%
> Cc1cc(O)c(C(C)C)cc1NC1=NS(=O)(=O)c2ccccc21
→ >57 | 0%
> CC(C)C[C@H](NP(=O)(O)O[C@@H]1O[C@@H](C)[C@@H](O)[C@@H](O)[C@H]1O)C(=O)N[C@@H](Cc1c[nH]c2ccccc12)C(=O)O
→ >57 | -15%
> CCc1cc2c(=O)c(-c3nc4ccccc4n3C)coc2c(CN2CCOCC2)c1O
→ . | 1%
> CCC(=O)[C@]12O[C@@]3(C4C(=O)OCCC41)N(Cc1ccccc1)C(C)=C(C(=O)OC)C(c1ccccc1)N3C2=O (stereo not given in full)
→ . | -6%[8 µM]
> CSc1nsc(SCc2ccc(F)cc2)n1
→ >57 | 0%
> O=C(Nc1cccc(F)c1)N1CC2(CCN(C(=O)c3csnn3)CC2)C1
→ >57 | -3%
> CC(C)C(=O)N(Cc1cc2ccccc2[nH]c1=O)C(C)C
→ >57 | -18%
> CC12COC3(C(=O)Nc4cccnc4)CC1CCC32C (stereo not given)
→ >57 | ?
> O=C1COc2ccc(OCc3ccc(F)cc3)cc21
→ >57 | -2%
> Cn1c(=O)c2c(nc(SCCN3CCOCC3)n2Cc2ccccc2)n(C)c1=O
→ >57 | -7%
> CC(C)(CNC(=O)c1cccs1)CNC(=O)c1cccs1
→ . | -5%
> COc1ccc(C(c2nnnn2Cc2cccs2)N2CCN(c3ccc(F)cc3)CC2)cc1OC (stereo not given)
→ >57 | 8%
> O=C(CCCn1c(=O)c2sccc2n(CC(=O)NCc2ccco2)c1=O)NCc1ccco1
→ >57 | 17%
> O=C(O)CNC1=NCCCCC1
→ >57 | -2%
> O=C(Nc1ccc2nn(-c3ccccc3)nc2c1)c1ccc2c(c1)OCCO2
→ . | ?

Other results.
Every second line gives: Prx2 Sm inh | LT uptake inh
> Cc1ccc2c(c1)nnn2C1CCN(C(=O)C2CCCCC2)CC1
→ >57 | -13%
> CC1CCCCC12NC(=O)N(CC(=O)NCCc1ccccn1)C2=O (stereo not given)
→ >57 | ?
> COc1ccc(C2C3=C(Nc4ncnn42)c2ccccc2CC3)cc1OC (stereo not given)
→ >57 | 5%
> O=C(CN1CCc2ccccc2C1)c1cccs1
→ >57 | -7%
> N#CC1=C(N)Oc2cc(N)ccc2C1C1CC=CCC1 (stereo not given)
→ >57 | ?
> O=c1cc(CN2CCC3(CC2)OCCO3)c2c(ccc3ccccc32)o1
→ >57 | -3%
> N#Cc1cc2c(nc1SCc1nc3ccccc3[nH]1)CCC2
→ >57 | ?
> CC(=O)Nc1ccc2nc(-c3ccccn3)[nH]c2c1
→ >57 | 10%
> CCC(=O)Nc1c(C)c(CC)nc2ccccc12
→ >57 | .
> Cc1nc(C)c(C(=O)C2=C(O)C(=O)N(CCN3CCOCC3)C2c2ccco2)s1 (stereo not given)
→ >57 | -4%
> O=c1[nH]c(N2CCc3ccccc32)nc2c1CCCC2
→ >57 | 10%
> CCOC(=O)C1CCN(C(=O)CCn2c(=O)[nH]c3ccsc3c2=O)CC1
→ >57 | 22%
> CC(C)NC(=O)CN(C(=O)CCC(=O)Nc1ccccn1)c1ccc(F)c(Cl)c1
→ >57 | -4%
> Cc1ccccc1-c1nc(CS(=O)CC(=O)N2CCC3(CC2)OCCO3)c(C)o1 (stereo not given)
→ >57 | 15%
> Cc1cccc(NC(=O)COc2nsnc2N2CCOCC2)c1
→ >57 | -12%
> Cn1c(N)c(C(=O)NCc2ccccc2Cl)sc1=S
→ >57 | ?
> CCOC(=O)C1(Cc2ccc(O)cc2)NC(c2ccco2)C2C(=O)N(c3ccccc3F)C(=O)C21 (stereo not given)
→ >57 | 9%
> OC1(c2cccc(C(F)(F)F)c2)CCN(c2ncnc3c2[nH]c2ccc(F)cc23)CC1
→ >57 | ?
> Cc1ccc(C(=O)CSC2=C(C#N)C(c3ccco3)C3=C(CC(C)(C)CC3=O)N2)cc1 (stereo not given)
→ >57 | .
> CCOC(=O)CNC(=O)C(CO)NC(=O)OCc1ccccc1 (stereo not given)
→ >57 | ?
> CCNc1nc(NC(C)C)nc(N(C#N)Cc2ccccc2)n1
→ . | -18%
> O=S(=O)(NCCO)c1cc[c]([Sb](=[O])([OH])[OH])cc1
→ >57 | -4%[8 µM]
> Cc1cc(NC(=O)Nc2ccc(N(C)C)cc2)c2cc(F)cc(F)c2n1
→ >57 | ?
> Cc1ccc(NC(=O)CSc2nnc(C3CCCCC3)n2N)cc1F
→ >57 | .
> Cc1ccc(NC(=O)C2CCCN(S(=O)(=O)c3cnc[nH]3)C2)cc1C (stereo not given)
→ >57 | 11%
> COc1ccc(C(c2sc3nc(C)nn3c2O)N2CCN(CCO)CC2)cc1OC (stereo not given)
→ >57 | -4%
> COc1ccc(CN2CC(C(=O)NCCCN3CCOCC3)CC2=O)cc1 (stereo not given)
→ >57 | -1%
> C[C@H](CN(C)C)C(=O)c1ccccc1C(=O)O
→ >57 | 5%[8 µM]
> O=c1[nH]cnc2[nH]ncc12
→ >57 | -6%&2%
> Cn1c(=O)c2c(nc(N3CCCCC3)n2CCSc2nc3ccccc3s2)n(C)c1=O
→ >57 | .
> COc1cccc(C2CC(c3cccc(C)c3)n3ncnc3N2)c1 (stereo not given)
→ >57 | -7%
> O=C(c1ccco1)N1CCN(C(=O)c2cccc3c2C(=O)N(C2CCCCC2)C3)CC1
→ >57 | 2%
> O=C(Cc1c(C(=O)O)[nH]c2ccccc12)NC1CCN(Cc2ccccc2)CC1
→ >57 | 5%
> CCOc1ccc(-c2nnc(-c3cccs3)o2)cc1OCC
→ >57 | -17%
> CCOC(=O)N1CC=C2C(C#N)=C(N)C(C#N)(C#N)[C@H](c3ccsc3)[C@H]2C1
→ >57 | ?
> CSc1nc(-c2ccco2)nn1S(=O)(=O)c1ccc(C)cc1
→ >57 | -24%
> O=C(CNC(=O)c1ccccc1F)NC1CC1
→ . | -2%
> Cc1ccc(OCC(=O)Nc2nnn(C)n2)c(C)c1
→ >57 | 7%
> COC(=O)C1=C(N)Oc2cc(N(C)C)ccc2C1c1ccccc1OC (stereo not given)
→ >57 | -28%
> CN=C=O
→ . | -6%
> O.O.[NH-]C1(C(=O)O)CCCC1.[NH-]C1(C(=O)O)CCCC1.[Ni+2]
→ >57 | -1%[8 µM]
> COc1ccc(N=C(C)c2c(O)n(C)c(=O)n(C)c2=O)c(OC)c1
→ >57 | 10%
> Fc1ccc(Br)cc1/C=N/n1cnnc1
→ . | 9%
> O=C(O)CSCCn1cccn1
→ >57 | 8%
> CCOC(=O)c1ccccc1NC(=O)Nc1ccc(OC)c(OC)c1
→ >57 | 1%
> COc1ccc(N=C2C(=O)Nc3ccccc32)cc1
→ >57 | 1%
> O=C(NCC1CCCO1)c1cccc(N2CCCC2=O)c1 (stereo not given)
→ >57 | -5%
> CC(=O)C1=C(O)C(=O)N(CCC(=O)O)C1c1cccc(F)c1 (stereo not given)
→ >57 | ?
> O=C(c1cccs1)N1CCN(C2CCN(Cc3ccccc3)CC2)CC1
→ >57 | 7%
> C=CCn1c(SCC(=O)Nc2nc3ccccc3s2)nnc1-c1ccccc1O
→ >57 | -15%

More results follow:
Every second line gives: Prx2 Sm inh | LT uptake inh
> CCn1c(N)c(C(=O)NCc2ccc3c(c2)OCO3)sc1=S
→ >57 | -18%
> CCOc1ccc(NC(=O)c2oc3ccccc3c2NC(=O)C(C)C)cc1
→ >57 | -6%
> CC1N(P(=O)(c2ccccc2)c2ccccc2)CC(O)(c2ccccc2)CC12CC2 (stereo not given)
→ >57 | ?
> CC1CCCCN1C(=O)c1ccccc1NC(=O)c1ccco1 (stereo not given)
→ >57 | 2%
> C/C=C(\C)c1nnc(NC(=O)c2ccco2)s1
→ >57 | 6%
> Cc1nc(NC2=NCN(Cc3ccccc3)CN2)nc2ccccc12
→ >57 | -7%
> Cc1ccc(C(=O)Nc2nc3ccc(S(C)(=O)=O)cc3s2)s1
→ >57 | 7%
> CC(C)CN1CC[C@@]2(CCCN(C(=O)Oc3ccccc3)C2)C1
→ >57 | ?
> COc1cc(CCC(=O)N2CCN(S(=O)(=O)c3ccc(C)c(C)c3)CC2)cc(OC)c1OC
→ >57 | ?
> CCNC(=O)C1CN(S(=O)(=O)c2ccccc2)CCN1S(=O)(=O)c1ccccc1 (stereo not given)
→ >57 | 4%
> CCn1c(SCc2ccc(C#N)cc2)nnc1-c1ccc(S(=O)(=O)N2CCCCC2)cc1
→ >57 | -19%
> CSc1nc2sc3c(c2c(=O)n1C)CCCC3
→ >57 | -14%
> CC(C)Cn1c(N2CCN(C(=O)c3cccs3)CC2)nc2ccccc21
→ >57 | -20%
> COC(=O)Cn1cc(C(=O)c2ccco2)c2ccccc21
→ >57 | 10%
> COc1ccc(C(=O)N2CCCC2)cc1S(=O)(=O)N1CCC(C)CC1
→ . | 1%
> Cc1oc(CC(C)C)cc1C(=O)Nc1ccc(C(=O)O)cc1
→ >57 | -3%
> COCCn1c(=O)c(-c2ccc(F)cc2)nc2cnc(Oc3ccc(OC)cc3)nc21
→ >57 | ?
> O=C(N1CCOCC1)N1CCN(C(=O)N(c2ccccc2)c2ccccc2)CC1
→ >57 | 5%
